MT1-MMP act inh: inhibitors of human MT1-MMP activation | P50281 | HT1080 RFP-PRO-GFP cells, GFP/RFP ratio fluorescence, overnight; percent of plate control window, DMSO zero | GFP/RFP ratio change, % at 20 µM | 0.061% of 360,000 active | AID 651647;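 active means GFP/RFP ratio change of at least 30% with cell ATP level not reduced by more than half and red fluorescence within 50% of control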; further: strong numbers were not always called active
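Compound: 20 µM single dose, 1% DMSO / System: HT1080 RFP-PRO-GFP cells / Controls: DMSO and RFP-L50D-GFP cell wells / Read-out basis: GFP/RFP fluorescence ratio / Schedule: overnight compound exposure at 37 °C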
Env fusion inh: HIV envelope-mediated fusion inhibition | HeLa-JRFL Env/CEM21 cell fusion, luciferase | AID 651610 | 1.1% of 360,000 active | inhibition, % at 12.3 µM;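 active means mean replicate inhibition score of at least 50 and every replicate individually at or above 50; inconclusive means only one of the two criteria met; inactive means mean below 50 and not all replicates reaching 50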;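 further: 0% = plate neutral controls and 100% = maraviroc near 300 nM; one replicate is shown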
MT1-MMP act inh RFP: also measured in MT1-MMP act inh; calls as there; RFP signal change, %; measured here: RFP expression control read;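 0 = vehicle wells; hits needed this value within 50% of zero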
* = called active by the depositor; i = inactive; ? = inconclusive; & = joins results of further samples. These rows are one share of the data; rates above refer to the full screens.

no.	Compound	MT1-MMP act inh	MT1-MMP act inh RFP	Env fusion inh
1	CC(C)Nc1ncnc2[nH]ncc12	-1	4	12
2	Nc1sc(-c2ccccc2)cc1C(=O)NCCc1ccc(Cl)cc1	-10	-5	?
3	O=C(CNc1cccc([N+](=O)[O-])c1)N1CCN(S(=O)(=O)c2ccc(Cl)cc2)CC1	-7	-7	i
4	Cc1ccc(Cc2c(-c3ccccc3)nc3c4ccccc4ccn23)cc1	0	0	-67
5	O=C(NCc1ccccc1)C1c2ccccc2OCC(=O)N1CC(F)(F)F (stereo not drawn)	3	0	-83
6	CCOC(=O)[C@]12CCCC=C1N(CCC1=CCCCC1)C(=O)[C@H](CC(=O)NCCc1ccccc1OC)C2	-4	-13	2
7	COC1OC(c2ccccc2)=C(c2ccc(C(N)=O)cc2)c2ccc(F)cc21 (stereo not drawn)	-3	-4	7
8	CSC(=S)NN=C(C)c1cccc(C)n1	8	-5	?
9	Nc1nc(=O)n(C2CCCCO2)cc1Br (stereo not drawn)	-2	-2	-3
10	Cc1cc(C)n2c(Nc3c(C)cccc3C)c(-c3cccnc3)nc2n1	-8	5	-48
11	CC1(c2nnnn2Cc2ccccc2)CCC(=O)N1CCc1c[nH]c2ccccc12 (stereo not drawn)	3	0	8
12	O=C1Nc2ccccc2N(C(=O)c2ccc(-c3ccccc3)cc2)C1c1nc2ccccc2[nH]1 (stereo not drawn)	2	-10	-273
13	Cc1cccc(C(=O)N2CCC(=O)N([C@H](COCc3cccc(C(F)(F)F)c3)Cc3ccccc3)CC2)c1	6	-6	-14
14	CCCN(C)C1CN(Cc2cn(Cc3ccc(F)cc3)nn2)S(=O)(=O)C1 (stereo not drawn)	4	7	9
15	O=C(C(=O)N1CCN(C/C=C/c2ccccc2)CC1)c1ccccc1	2	-3	7
16	CCCCCCCCN1C(=O)[C@H](CC(=O)NCc2cccc(C(F)(F)F)c2)C[C@@]2(C(=O)OC)CC(C)(C)CC=C12	-12	-16	-3
17	CCOC(=O)[C@]12CCCC=C1N(Cc1ccccc1)C(=O)[C@H](CC(=O)NCc1cccs1)C2	-3	-1	-32
18	O=S1(=O)CC(N2CCCCC2)CN1Cc1cn(Cc2cccc(Cl)c2)nn1 (stereo not drawn)	3	6	-12
19	Cc1cccc(C)c1NC(=O)C(c1ccnc2ccccc12)n1c(=O)c(-c2ccco2)nc2ccccc21 (stereo not drawn)	-6	6	6
20	O=S(=O)(c1ccc(NC(=S)NN=Cc2ccccc2O)cc1)N1CCCCC1	8	-4	-13
21	CCc1ncn(CCc2ccccc2OC)c1C(C)C	0	-5	13
22	Nc1sc(Cc2ccccc2)cc1C(=O)c1c(-c2ccccc2)[nH]c2ccccc12	-9	-17	20
23	N#Cc1c(Nc2ccccc2)[n+]([O-])c2ccc(Cl)cc2[n+]1[O-]	4	-22	-9
24	CCCCNC(=O)c1c(N)[nH]c(C(=O)c2ccccc2)c1-c1ccc(Cl)cc1	3	4	-16
25	Cc1ccc(Cc2c(-c3cccc(Br)c3)nc3c(C)cc(Br)cn23)cc1	-3	3	3

Arranged by number of heavy atoms (lowest first): some entries from above.
no.	Compound	MT1-MMP act inh	MT1-MMP act inh RFP	Env fusion inh
1	CC(C)Nc1ncnc2[nH]ncc12	-1	4	12
9	Nc1nc(=O)n(C2CCCCO2)cc1Br (stereo not drawn)	-2	-2	-3
21	CCc1ncn(CCc2ccccc2OC)c1C(C)C	0	-5	13
23	N#Cc1c(Nc2ccccc2)[n+]([O-])c2ccc(Cl)cc2[n+]1[O-]	4	-22	-9
2	Nc1sc(-c2ccccc2)cc1C(=O)NCCc1ccc(Cl)cc1	-10	-5	?
15	O=C(C(=O)N1CCN(C/C=C/c2ccccc2)CC1)c1ccccc1	2	-3	7
14	CCCN(C)C1CN(Cc2cn(Cc3ccc(F)cc3)nn2)S(=O)(=O)C1 (stereo not drawn)	4	7	9
5	O=C(NCc1ccccc1)C1c2ccccc2OCC(=O)N1CC(F)(F)F (stereo not drawn)	3	0	-83
24	CCCCNC(=O)c1c(N)[nH]c(C(=O)c2ccccc2)c1-c1ccc(Cl)cc1	3	4	-16
3	O=C(CNc1cccc([N+](=O)[O-])c1)N1CCN(S(=O)(=O)c2ccc(Cl)cc2)CC1	-7	-7	i
22	Nc1sc(Cc2ccccc2)cc1C(=O)c1c(-c2ccccc2)[nH]c2ccccc12	-9	-17	20
17	CCOC(=O)[C@]12CCCC=C1N(Cc1ccccc1)C(=O)[C@H](CC(=O)NCc1cccs1)C2	-3	-1	-32
12	O=C1Nc2ccccc2N(C(=O)c2ccc(-c3ccccc3)cc2)C1c1nc2ccccc2[nH]1 (stereo not drawn)	2	-10	-273
19	Cc1cccc(C)c1NC(=O)C(c1ccnc2ccccc12)n1c(=O)c(-c2ccco2)nc2ccccc21 (stereo not drawn)	-6	6	6
16	CCCCCCCCN1C(=O)[C@H](CC(=O)NCc2cccc(C(F)(F)F)c2)C[C@@]2(C(=O)OC)CC(C)(C)CC=C12	-12	-16	-3

Other compounds follow:
no.	Compound	MT1-MMP act inh	MT1-MMP act inh RFP	Env fusion inh
26	CSCCC(c1nc2ccccc2[nH]1)n1c(=O)c(-c2cc3ccccc3[nH]2)nc2ccccc21 (stereo not drawn)	4	-2	-31
27	CCOC(=O)[C@]12CCCC=C1N(Cc1ccc(Cl)cc1Cl)C(=O)[C@H](CC(=O)NCCC(C)C)C2	-2	-7	-33
28	O=C1/C(=C/c2cccnc2)SC(=S)N1Cc1ccco1	-1	1	-2
29	CC1(C(=O)NCc2ccccc2)CSCC(=O)N1C1CC1 (stereo not drawn)	-1	3	15
30	CCOC(=O)C1CCCN(C(=O)COc2ccc(C(C)(C)C)cc2)CC1 (stereo not drawn)	2	-1	33
31	COC(=O)C[C@@H]1C=C[C@@H](NC(=O)c2cccnc2)[C@@H](CO)O1	-4	-1	25
32	O=C1Nc2ccccc2-n2nnnc2C1N1CCN(C(=O)c2ccco2)CC1 (stereo not drawn)	-2	6	15
33	NC(=O)C1CCN(C(=O)CNC(=O)c2ccc(F)cc2)CC1	-2	1	15
34	COc1cc(C=NO)nc(-c2ccccn2)c1	10	-3	-23
35	Nc1ncnc2c1ccn2[C@H]1CN(Cc2ccc3c(c2)OCO3)C[C@@H](COC(=O)c2ccccc2)O1	0	-3	8
36	Cc1cccc2nc(Cn3c(=O)n(CCC(=O)NCc4ccco4)c(=O)c4ccccc43)cc(=O)n12	-1	3	-6
37	Cc1ccc(S(=O)(=O)N2[C@@H](Cc3ccccc3)CO[C@H]2CC(=O)c2cccs2)cc1	0	1	26
38	Cn1ncc2c(=S)[nH]c(=S)[nH]c21	5	7	3
39	O=C1C=C(c2ccccc2)C(c2ccccc2)C1O (stereo not drawn)	4	4	25
40	CCCCNC(=O)C1c2ccccc2OCC(=O)N1CCc1ccccc1 (stereo not drawn)	-2	2	-44
41	CS(=O)(=O)N1Cc2cc(C(=O)NCC3CCCCC3)nc(-c3cccc(-c4cccnc4)c3)c2[C@H]1CCO	-1	-2	12
42	CC(C)C[C@@H](CN1CCC[C@@H]1CN1C(=O)C(=O)NC[C@@H]1Cc1ccc(O)cc1)N1C[C@H](Cc2ccc(O)cc2)N(CC2CCCCCC2)C(=O)C1=O	-1	0	5
43	COc1cc(OC)cc(-c2c(Sc3ccccc3)c3cc(-c4cnc(OC)nc4)ccc3n2C)c1	-1	-7	26
44	CC(C)(C)OC(=O)N1CCC[C@H]1C(=O)N1CCC[C@H]1C(=O)NCc1ccncc1	2	1	-9
45	CC1(c2nc3ccccc3cc2C#N)OCCO1	4	6	-24
46	N#Cc1cccc(C(=O)C(=O)N2CCN(C(=O)OCc3ccccc3)CC2)c1	4	-1	-29
47	Cc1ccc(S(=O)(=O)N2CCCCC2)cc1NC(=O)c1ccncc1	0	0	-47
48	O=C(C(O)c1ccccc1)N1CCN(S(=O)(=O)c2ccc(F)c(F)c2)CC1 (stereo not drawn)	0	3	-2
49	CC(=O)C1=CCC(c2ccccc2)N(Cc2ccccc2)C1 (stereo not drawn)	-6	-4	-15
50	O=S1(=O)CC(N2CCSCC2)CN1Cc1cn(Cc2ccc(Cl)cc2)nn1 (stereo not drawn)	2	3	-23

Whole records, quoted from the list. Order of values: MT1-MMP act inh, MT1-MMP act inh RFP, Env fusion inh
Record of `CS(=O)(=O)N1Cc2cc(C(=O)NCC3CCCCC3)nc(-c3cccc(-c4cccnc4)c3)c2[C@H]1CCO` → -1, -2, 12
Record of `Cn1ncc2c(=S)[nH]c(=S)[nH]c21` → 5, 7, 3

Next structures:
no.	Compound	MT1-MMP act inh	MT1-MMP act inh RFP	Env fusion inh
51	CC(C)C[C@H]1CN(CCCC[C@@H]2CNC(=O)C(=O)N2CC2CCCCC2)C(=O)C(=O)N1CCC1CCCCC1	3	-1	-9
52	CC(C)[C@H](NC(=O)OC(C)(C)C)c1cc(C(=O)NCCO)c(N)s1	4	5	-44
53	Cc1nc(Cc2nnc(SCC(=O)N3CC(=O)Nc4ccccc43)o2)cs1	0	6	4
54	CCOC(=O)Nc1ccc2c(c1)Cc1cc([N+](=O)[O-])ccc1-2	1	-7	-44
55	CN(CCO)c1cccc2c1S(=O)(=O)N[C@H](Cc1ccccc1)CO2	2	2	-19
56	CSCCC1NC(=O)C(C(C)=NNC(N)=O)=C1O (stereo not drawn)	4	-1	-28
57	O=c1[nH]c(-c2ccccc2)nc(CN2CCCCC2)c1O	3	1	-1
58	COC(=O)[C@]12CCCCC=C1N(Cc1ccc3c(c1)OCO3)C(=O)[C@H](CC(=O)NCc1cccs1)C2	4	3	9
59	COCCCNC(=O)C[C@@H]1C[C@@]2(C(=O)OC)CC(C)(C)CC=C2N(Cc2ccc3c(c2)OCO3)C1=O	3	4	10
60	COc1ccc(NC(=O)N(C)[C@H]2C[C@H]3c4[nH]c5ccc(-c6ccc7c(c6)OCO7)cc5c4CCN3C[C@H]2[C@H](C)O)cc1	-6	-3	-11
61	CCCCN1C(=O)C(CC(=O)NCc2cccc3ccccc23)CC(C(=O)N2CCCCCC2)=C1C (stereo not drawn)	2	-5	-2
62	CC1(C)CN(Cc2ccccc2)C(=O)[C@H]1CC(=O)Nc1ccccc1	7	-3	22
63	c1ccc(-c2c[nH]c(-c3ccccc3)c2)cc1	3	-1	-74
64	COc1ccc(Cn2cc(CN3CCc4onc(-c5ccc(Br)cc5)c4C3=O)nn2)cc1	2	-10	14
65	CCCCc1c(Cc2ccccc2)ncn1CCc1ccccc1OC	2	-22	58*
66	COC(=O)[C@@]12C[C@@H](CC(=O)NCC34CC5CC(CC(C5)C3)C4)C(=O)N(CCc3ccc(OC)c(OC)c3)C1=CCC(C)(C)C2	-18	-25	-56
67	CC1=C(C(=O)N2CCCCCC2)CC(CC(=O)NC2CCCC2)C(=O)N1Cc1ccc(F)cc1 (stereo not drawn)	7	5	-17
68	O=C1NC[C@@H](CCCCN2CCN(CCC3CCCCC3)C(=O)C2=O)N(CCC2CCCCC2)C1=O	8	3	-1
69	O=c1[nH]nnc2c1cnn2-c1ccccc1	1	-1	-26
70	COC(=O)C1(C(=O)OC)C[C@H](/C=C/c2ccccc2)N(Cc2ccccc2OC)[C@@H]1c1cccs1	-4&-3	-7&-8	3&-10
71	COc1cccc2c1C1(O)C2CCCCCCCCCC12OCCCO2 (stereo not drawn)	2	-1	4
72	COc1ccccc1-c1ncn(Cc2cccc(-c3ccccc3)c2)c1-c1cc(C)cc(C)c1	-8	-11	9
73	CC(C)=CCc1c2c(c3occ(-c4ccc(O)c(O)c4)c(=O)c3c1O)C=CC(C)(C)O2	-18	-6	-58
74	CN(CCO)c1ccc2c(c1)OC[C@H](Cc1ccccc1)NS2(=O)=O	6	2	9
75	CC(NC(=O)C1=CC=CN2CCS(=O)(=O)N=C12)c1ccc(Cl)c(Cl)c1 (stereo not drawn)	2	-1	4
76	Cc1ccc(N2CCN(C(C(=O)Nc3c(C)cccc3C)c3cc4ccccc4o3)CC2)cc1 (stereo not drawn)	-13	-13	1
